Marburg entry = qHTS for Inhibitors of binding or entry into cells for Marburg Virus; Potency, µM (highest dose often 49.2 µM), for the others: top-dose activity change, negative = inhibition, usual class: inhibitors; Marburg virus pseudotype entry/binding inhibition, cell-based; control for the full effect not named in the record; many of its hits are not listed in these tables; actives 6.5% (n = 18,000); active means well fitted inhibition curve with a large enough effect; inconclusive means small, poorly fitted or top-dose-only effect; inactive means no such curve, though single readings can be large or run the other way; tested in HEK293 cells; note: luciferase read-out
LASV entry inh = qHTS for Inhibitors of binding or entry into cells for Lassa Virus; Lassa virus pseudotyped entry inhibition, cell-based qHTS; control for the full effect not named in the record; many of its hits are not listed in these tables; AID 720533, 2013; Potency, µM (doses to about 49.2 µM), for the others: at the highest dose activity change, negative = inhibition, most hits filed as inhibitors; actives 4.1% (n = 18,000); active = well fitted inhibition curve with a large enough effect; inconclusive = small, poorly fitted or top-dose-only effect; inactive = no such curve, though single readings can be large or run the other way; tested in HEK293 cells; note: luciferase read-out
* = called active by the depositor; & = joins results of further samples; [ ] = dose if it differs, or a comment. % is set by controls: 0 for no effect and ±100 for the full control effect; potency is the fitted concentration of half-maximal effect. An excerpt; rates above refer to the full screens.

For O=C(OCc1cn([C@H]2CN(C(=O)c3cccs3)[C@@H](c3ccc(Cl)cc3)C[C@H]2O)nn1)c1ccccc1 the results were Marburg entry -9% and LASV entry inh -12%.
COc1cc(OC)c2c(-c3cccc(/C=C/c4ccc(F)cc4)c3)cc(=O)oc2c1 was read as Marburg entry 20% and LASV entry inh 3%.
`C[C@H](CCC(=O)O)C[C@H](C)C[C@H](C)C(=O)/C=C(\O)[C@H](C)C[C@H](C)C/C=C/[C@@H](C)[C@@H](O)[C@@H](C)[C@@H](O)C[C@@H]1CC[C@@](C)(C2CC[C@@](C)([C@@H](C)O)O2)O1` (stereo not given in full) gave Marburg entry -34% and LASV entry inh -25%.
`S=C1SCN(Cc2ccccc2)CN1Cc1ccccc1` gave Marburg entry -4% and LASV entry inh -8%.
COc1cccc(C2(CC(=O)N3CCCOc4c(cccc4OC)C3)CC(=O)N(C)C2=O)c1 (stereo not given) was read as Marburg entry -7% and LASV entry inh 0%.
For COC(=O)N[C@@H](/C=C/c1ccccc1)[C@@H](C)[N+](=O)[O-] the results were Marburg entry 1% and LASV entry inh -5%.
Screening CCCCC(C)(O)C/C=C/[C@H]1[C@H](O)CC(=O)[C@@H]1CCCCCCC(=O)O (stereo not given in full) returned Marburg entry -14%&-10% and LASV entry inh 3%&-14%.
For C=C(C(C)=O)C(O)c1ccccc1 (stereo not given) the results were Marburg entry inconclusive and LASV entry inh 9%.
Screening CNC(=O)c1cncc(C=Cc2c(Cl)cccc2Cl)c1 returned Marburg entry 26% and LASV entry inh 24%.
`COC(=O)CNC(=O)c1cnn(-c2ncc3c(n2)-c2ccccc2CCC3)c1C1CC1` gave Marburg entry -9% and LASV entry inh 0%.
Screening COc1ccccc1OCC(O)CN1CCN(CC(=O)Nc2c(C)cccc2C)CC1 (stereo not given) returned Marburg entry -7% and LASV entry inh 2%.
Screening CC(CCN1CCCc2nc(C)c(C)cc21)=NO[C@@H](C)CN1CCCCc2nc(C)c(C)cc21 returned Marburg entry -28%[8.59 µM] and LASV entry inh 4%[8.59 µM].
Screening COCCN1C(=O)N[C@@H](CCc2ccccc2)[C@H](C(C)=O)[C@H]1C returned Marburg entry -2%[8.59 µM] and LASV entry inh 4%[8.59 µM].
CC1(C)C=Cc2cc3ccc(=O)oc3cc2O1 was read as Marburg entry 44%[activator] and LASV entry inh -8%.
`c1nc(NCCN2CCOCC2)c2cc(-c3ccc4c(c3)OCO4)ccc2n1` gave Marburg entry 11% and LASV entry inh 2%.
`C[C@](N)(C(=O)O)c1ccc(-c2nn[nH]n2)cc1` gave Marburg entry 10% and LASV entry inh -14%.
`Cc1cc(-c2ccnc(-n3ncc(C(=O)N4CCCCC4c4cccnc4)c3C3CC3)n2)c(C)s1` (stereo not given) gave Marburg entry -2% and LASV entry inh -5%.
CS(=O)(=O)CCNCc1ccc(-c2ccc3ncnc(Nc4ccc(OCc5ccccc5)c(C(F)(F)F)c4)c3c2)o1 was read as Marburg entry inconclusive.
c1ccc(COc2ccc(Nc3ncnc4ccc(-c5ccco5)cc34)cc2)cc1 was read as Marburg entry inconclusive.
For C=CCC(C)(O)C#Cc1ccccc1 (stereo not given) the results were Marburg entry -17% and LASV entry inh 2%.
`Oc1ccc(O)cc1` gave Marburg entry inconclusive and LASV entry inh -21%&-28%.
`CC(C)=CCCC1=CC[C@H](C(=O)O)[C@H](C(=O)O)C1` gave Marburg entry 16% and LASV entry inh 9%.
For O=C1OCCN1/N=C\c1ccc([N+](=O)[O-])o1 the results were Marburg entry 25%[17.8 µM] and LASV entry inh -2%[17.8 µM].
For CC(C)(C)NC(=O)[C@H]1CC[C@H]2[C@@H]3CC=C4C=C(C(=O)O)CC[C@]4(C)[C@H]3CC[C@]12C the results were Marburg entry 20% and LASV entry inh 9%.
For C=CC(=O)N1C(=O)c2ccccc2S1(=O)=O the results were Marburg entry -12% and LASV entry inh -4%.
For CC(C)C1C(=O)N(Cc2cn(Cc3ccco3)nn2)CCS(=O)(=O)N1Cc1ccc(-c2ccc(F)nc2)cc1 (stereo not given) the results were Marburg entry -26% and LASV entry inh 14%.
For CCOc1ccc(N=Nc2ccc(N)cc2N)cc1 the results were Marburg entry 9% and LASV entry inh inconclusive.
Screening CCCCCCCC/C=C\CCCCCCCC(=O)NC(C)C(=O)O (stereo not given) returned Marburg entry 2% and LASV entry inh 6%.
`COC(=O)C(C(=O)OC)C(Cc1cc(F)cc(F)c1F)NC=O` (stereo not given) gave Marburg entry -12% and LASV entry inh -25%.
CCCCCCC1=Cc2cc(OC)c(OC)cc2C(C(C(C)=O)C(=O)OCC)O1 (stereo not given) was read as Marburg entry 35%[activator][8.59 µM] and LASV entry inh -3%[8.59 µM].

Brought forward from above: seven compounds, followed by the next part.
For CC(C)(C)NC(=O)[C@H]1CC[C@H]2[C@@H]3CC=C4C=C(C(=O)O)CC[C@]4(C)[C@H]3CC[C@]12C the results were Marburg entry 20% and LASV entry inh 9%.
For C=CC(=O)N1C(=O)c2ccccc2S1(=O)=O the results were Marburg entry -12% and LASV entry inh -4%.
For CC(C)C1C(=O)N(Cc2cn(Cc3ccco3)nn2)CCS(=O)(=O)N1Cc1ccc(-c2ccc(F)nc2)cc1 (stereo not given) the results were Marburg entry -26% and LASV entry inh 14%.
For CCOc1ccc(N=Nc2ccc(N)cc2N)cc1 the results were Marburg entry 9% and LASV entry inh inconclusive.
Screening CCCCCCCC/C=C\CCCCCCCC(=O)NC(C)C(=O)O (stereo not given) returned Marburg entry 2% and LASV entry inh 6%.
`COC(=O)C(C(=O)OC)C(Cc1cc(F)cc(F)c1F)NC=O` (stereo not given) gave Marburg entry -12% and LASV entry inh -25%.
CCCCCCC1=Cc2cc(OC)c(OC)cc2C(C(C(C)=O)C(=O)OCC)O1 (stereo not given) was read as Marburg entry 35%[activator][8.59 µM] and LASV entry inh -3%[8.59 µM].
For COC(=O)[C@@H]1CCCN1C(=O)c1c(OC)cc(=O)n2c1CCN(Cc1ccc3c(c1)OCCO3)CC2 the results were Marburg entry 0% and LASV entry inh -2%.
`COc1ccccc1[C@H]1C(c2ccccc2)=NN(c2ccccc2)[C@@H]1CO` gave Marburg entry inconclusive and LASV entry inh -27%.
CCCCCCN1C[C@H](O)[C@@H](n2cc(COC(=O)c3ccccc3)nn2)C[C@H]1c1ccc(Cl)cc1 was read as Marburg entry inconclusive and LASV entry inh -32%.
Screening CC(C)(C)OC(=O)NCCCCC1=CC2=CC(=O)C(C)(OC(=O)c3cnc4ccccc4n3)C(=O)C2=CO1 (stereo not given) returned Marburg entry -8% and LASV entry inh 0%.
CCCCCC(N)=O was read as Marburg entry -1% and LASV entry inh -16%.
Screening Cc1ccc(CN2CCOc3ccc(C(C)(O)COc4ccccc4)cc3C2)o1 (stereo not given) returned Marburg entry -2% and LASV entry inh -23%.
Cc1ccc(C2CC(=O)Oc3c(C(C)C)ccc(C)c32)cc1 (stereo not given) was read as Marburg entry -7% and LASV entry inh -16%.
For Nc1ncnc2c1nc(Br)n2C1CC(O)C(CO)O1 (stereo not given) the results were Marburg entry 2% and LASV entry inh 1%.
`CC(=O)Oc1cc(OC(C)=O)c2c(c1)OC(c1ccc(OC(C)=O)c(OC(C)=O)c1)C(OC(C)=O)C2` (stereo not given) gave Marburg entry 11%&11% and LASV entry inh -2%&-4%.
For CC(=O)OC1C[C@@]2(C)C(c3ccoc3)OC(=O)C3O[C@@]32[C@]2(C)C(OC(C)=O)CC3C(C)(C)C(OC(C)=O)CC(OC(C)=O)[C@@]3(C)C12 (stereo not given in full) the results were Marburg entry 2% and LASV entry inh 7%.
For CC(C(=O)O)c1ccc(/C=C2\CCCCC2=O)cc1 (stereo not given) the results were Marburg entry 17% and LASV entry inh -5%.
For CC1(C)CN(C2CCCCC2)C(=O)[C@@H]1CC(=O)Nc1ccc(Br)cc1 the results were Marburg entry 9% and LASV entry inh -28%.
Screening COc1ccc(CN2CCC3(CC2)c2ccccc2[C@@H](NC(=O)c2ccsc2)[C@@H]3OC)cc1O returned Marburg entry inconclusive and LASV entry inh -18%.
Screening C=C1c2cccc(OC)c2O[C@H](C(=O)OCC)[C@@H]1CC(CC)CCCC (stereo not given in full) returned Marburg entry inconclusive and LASV entry inh inconclusive.
`COc1ccc(-c2cc(=O)c3cc(C)ccc3[nH]2)cc1` gave Marburg entry 51%[activator] and LASV entry inh 56%[activator].
For O=[N+]([O-])O[C@@H]1CO[C@H]2[C@@H]1OC[C@@H]2O the results were Marburg entry inconclusive and LASV entry inh -20%.
Screening COC(=O)N1C(C)=Cc2ccccc2C1CC(C)=CC(C)=O (stereo not given) returned Marburg entry -10%&-14%[8.59 µM] and LASV entry inh -6%&-16%[8.59 µM].
`C[C@@H]1C(=O)O[C@H]2C[C@@]34[C@H]5C[C@@H](C(C)(C)C)[C@]36[C@H](OC(=O)[C@H]6O)O[C@]4(C(=O)O5)[C@]21O` gave Marburg entry 3% and LASV entry inh 1%.
For CCCN1CCN(C(=O)c2cnn(-c3ncc4c(n3)-c3ccccc3CCC4)c2COC)CC1 the results were Marburg entry -17% and LASV entry inh -8%.
For COC(=O)[C@@]1(C=C2c3ccc(F)cc3[C@@H](OC)[C@@H]2C)[C@@H]2c3ccccc3O[C@@H]21 the results were Marburg entry inconclusive and LASV entry inh 1%[8.59 µM].
CC(C)C(C)/C=C/C(C)C1CCC2C3=CCC4CC(=O)CC[C@@]4(C)C3CC[C@]21C (stereo not given in full) was read as Marburg entry -12% and LASV entry inh -13%.
`COC(=O)[C@@H]1CCCN1Cc1ccc2c(c1)CN(Cc1cccn1-c1ccccn1)CCO2` gave Marburg entry -11% and LASV entry inh -1%.
For NC(Cn1ccc(=O)c(O)c1)C(=O)O (stereo not given) the results were Marburg entry 27% and LASV entry inh 6%.
Screening CN(C)Cc1ccccc1 returned Marburg entry 8% and LASV entry inh -16%.
Screening C=C=CCCN1C(=O)NC(c2ccccc2)C(C(=O)OC)=C1C (stereo not given) returned Marburg entry -18%[8.59 µM] and LASV entry inh 5%[8.59 µM].
Cc1oc(-c2ccccc2NC(=O)c2ccccc2)nc1CNC(=O)c1c(-c2ccccc2)noc1C was read as Marburg entry -32% and LASV entry inh 0%.
Screening Cc1c(C(=O)NCC2(N3CCCCC3)CCCC2)cnn1-c1nccc(-c2ccccc2F)n1 returned Marburg entry -18% and LASV entry inh -9%.
For CCN(CC)C(=O)/C(C#N)=C/c1cc(O)c(O)c([N+](=O)[O-])c1 the results were Marburg entry 6% and LASV entry inh -19%.
Screening O=C(Nc1ccc(O)cc1)c1ccccc1O returned Marburg entry 12% and LASV entry inh -7%.
`CCCC1CC(C(=O)N[C@H](C(C)O)C2OC(SC)[C@@H](O)C(O)C2O)N(C)C1` (stereo not given in full) gave Marburg entry 4% and LASV entry inh -17%.

5 compounds out of the list, arranged by formula weight, descending:
Cc1oc(-c2ccccc2NC(=O)c2ccccc2)nc1CNC(=O)c1c(-c2ccccc2)noc1C was read as Marburg entry -32% and LASV entry inh 0%.
`CCCC1CC(C(=O)N[C@H](C(C)O)C2OC(SC)[C@@H](O)C(O)C2O)N(C)C1` (stereo not given in full) gave Marburg entry 4% and LASV entry inh -17%.
CC(C)C(C)/C=C/C(C)C1CCC2C3=CCC4CC(=O)CC[C@@]4(C)C3CC[C@]21C (stereo not given in full) was read as Marburg entry -12% and LASV entry inh -13%.
For CCN(CC)C(=O)/C(C#N)=C/c1cc(O)c(O)c([N+](=O)[O-])c1 the results were Marburg entry 6% and LASV entry inh -19%.
For NC(Cn1ccc(=O)c(O)c1)C(=O)O (stereo not given) the results were Marburg entry 27% and LASV entry inh 6%.

Carrying on.
`COc1cccc(-c2ccc3ncnc(NC4CCNCC4)c3c2)c1` gave Marburg entry inconclusive and LASV entry inh 0%.
Screening COCC(=O)Nc1cc(C(=O)N2CCc3ccccc3C2)c2c(c1)nc(-c1ccncc1)n2C returned Marburg entry 2% and LASV entry inh 0%.
For C=CC1(O)C(OC)=CC2C(=O)C1C(c1ccccc1)C2C (stereo not given) the results were Marburg entry 14%[8.59 µM].
Screening COc1cc(O)ccc1CN1CCc2nnc(C(C)NC(=O)c3cc(F)ccc3F)n2CC1 (stereo not given) returned Marburg entry 2% and LASV entry inh -8%.
`COc1cc(CNc2nc(C)c(-c3ccn(C4Cc5ccccc5C4)n3)s2)cc2c1OCO2` gave Marburg entry 0% and LASV entry inh -28%.
For O=C(Nc1ccc([N+](=O)[O-])cc1O)Nc1ccccc1Br the results were Marburg entry inconclusive and LASV entry inh inconclusive.
NC1(C(=O)O)CC(C(=O)O)C1 (stereo not given) was read as Marburg entry 30%&28%&11% and LASV entry inh 2%&10%&-9%.
CCN1C(=NCC(C)C)NC(c2cccc(F)c2)C(C(=O)OC)=C1C (stereo not given) was read as Marburg entry -5%[8.59 µM] and LASV entry inh 10%[8.59 µM].
`CCCCCCCCCCCCCCCCOC[C@H](COP(=O)([O-])OCC[N+](C)(C)C)OC(=O)CCCCCCCC(=O)O` gave Marburg entry inconclusive and LASV entry inh inconclusive.
Screening CCN(CC)CCNC(=O)c1cc(S(C)(=O)=O)ccc1OC returned Marburg entry 0% and LASV entry inh -10%.
Screening CC(C)OC(=O)[C@@H]1C=C[C@H](C)[C@@H](CCCCOCc2ccccc2)O1 returned Marburg entry -13% and LASV entry inh -13%.
For OC1(c2ccc3c(c2)CN(Cc2nccs2)CCO3)CCN(c2ccccc2F)CC1 the results were Marburg entry -9% and LASV entry inh -8%.
Screening CC[C@@]1(O)C(=O)OCc2c1cc1n(c2=O)Cc2cc3ccccc3nc2-1 returned Marburg entry 2.2µM* and LASV entry inh inconclusive.
For C=CCN1[C@@H](CC(C)C)COc2c(Cl)cccc2S1(=O)=O the results were Marburg entry -9% and LASV entry inh 19%.
